Bioassay records deposited in PubChem BioAssay by National Center for Advancing Translational Sciences (NCATS).
2A StopGo – FMDV 2A StopGo reporter, luciferase signal; Potency, µM (titrated, usually from 57.9 µM), for the others: at the top dose signal change, negative = less light; human cells with a luciferase reporter of 2A StopGo recoding; control for the full effect not named in the record; 410,000 compounds, 1.2% hits; active = well fitted falling curve with a large enough effect; inconclusive = small, poorly fitted or top-dose-only effect; inactive = no such curve, though single readings can be large or run the other way; tested in HEK293T cells; note: % is set by controls: 0 for no effect and ±100 for the full control effect; nearly all actives have a fitted effect of over 45% in size; luciferase light after 4 h
Cruzain Triton – inhibitors of Trypanosoma cruzi cruzain with detergent | AID 1478 | 200,000 compounds, 0.43% hits | Potency, µM, inactives show max response, negative = inhibition, hits mostly inhibitors | purified cruzain, Z-FR-AMC fluorescence, 0.01% Triton | P25779;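 note: plate controls were neutral wells for no effect and buffer without enzyme for full effect; nearly all actives have a fitted effect of over 40% in size; top concentration of the series not given in the record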
Target sequence (P25779 123-467 limits assumed): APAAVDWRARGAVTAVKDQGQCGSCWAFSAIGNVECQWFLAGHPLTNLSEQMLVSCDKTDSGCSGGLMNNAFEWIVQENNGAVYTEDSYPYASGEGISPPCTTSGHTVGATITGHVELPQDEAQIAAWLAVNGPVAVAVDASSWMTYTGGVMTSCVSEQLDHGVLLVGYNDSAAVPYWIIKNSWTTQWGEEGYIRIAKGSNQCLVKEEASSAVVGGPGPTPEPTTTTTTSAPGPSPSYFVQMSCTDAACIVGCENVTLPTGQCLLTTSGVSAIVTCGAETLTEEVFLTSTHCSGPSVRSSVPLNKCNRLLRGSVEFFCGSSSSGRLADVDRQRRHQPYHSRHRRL
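Read-out: AMC fluorescence (360 nm excitation, 450 nm emission), four reads over 2 min, first-to-third difference used. Conditions: cruzain 1.5 nM, Z-FR-AMC 2 uM, pH 5.5 acetate, 5 mM DTT, 0.01% Triton X-100.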
MARV entry inh – blocks Marburg virus binding to or entry into cells; Marburg virus pseudotyped entry inhibition, cell reporter; control for the full effect not named in the record; about a third of the inactives were read at about 46 µM; Potency, µM (doses to about 37.8 µM), inactives show top-dose activity change, negative = inhibition, usual class: inhibitors; 300,000 compounds, 1.8% hits; AID 540276; active = well fitted inhibition curve with a large enough effect; inconclusive = small, poorly fitted or top-dose-only effect, or effect the other way; inactive = flat fitted curve, though single readings scatter; tested in HEK293 cells; about a fifth of its hits are not listed in these tables; note: % is set by controls: 0 for no effect and ±100 for the full control effect; luciferase read-out
RE007 growth inh – less growth of the S. pombe RE007 Vpr strain. 360,000 compounds, 0.21% hits. Potency, µM (series often up to 92.2 µM), inactives show top-dose activity change, negative = less growth. S. pombe RE007 Vpr strain, BacTiter-Glo ATP luminescence, 24 h; control for the full effect not named in the record. AID 651644; active = well fitted falling curve with a large enough effect; inconclusive = small, poorly fitted or top-dose-only effect; inactive = no such curve, though single readings can be large or run the other way;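 note: % is set by controls: 0 for no effect and ±100 for the full control effect; nearly all actives have a fitted effect of over 50% in size; the assay follows cell death caused by Vpr and the record does not say whether a fall means rescue or toxicity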
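Fission yeast strain RE007, carrying one chromosomally integrated HIV-1 vpr copy, was seeded at OD 0.01 in PMG+AL medium with 23 nL pinned compound. After 24 h at 30 °C and 99% humidity, viability was read by BacTiter-Glo luminescence.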
Cruzain noTriton – inhibitors of Trypanosoma cruzi cruzain without detergent | 200,000 compounds, 2.3% hits | purified cruzain, Z-FR-AMC fluorescence, no detergent | Potency, µM, inactives show max response, negative = inhibition, actives largely listed as inhibitors | P25779 | AID 1476;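 note: plate controls were enzyme without inhibitor for no effect and buffer without enzyme for full effect; nearly all actives have a fitted effect of over 40% in size; top concentration of the series not given in the record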
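Purified cruzain at 1.5 nM, pre-incubated 15 min with compound at room temperature in 100 mM sodium acetate pH 5.5, 5 mM DTT, 0.00005% Triton X-100. Reaction started with 2 uM Z-FR-AMC; AMC fluorescence increase over 60 s gives rate.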
NS1 inh – blocks influenza NS1 protein function | 270,000 compounds, 0.4% hits | AID 2326 | S. cerevisiae slowed by influenza A NS1, growth recovery by OD600 | Potency, µM (titrated, usually from 46.1 µM), for inactives: at the top dose activity, positive = more growth; active means well fitted rising curve with a large enough effect; inconclusive means small, poorly fitted or top-dose-only effect; inactive means no such curve, though single readings can be large or run the other way; note: nearly all actives have a fitted effect of over 50% in size
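Compounds were scored for reversing the slow growth caused by influenza A NS1 in S. cerevisiae, measured by optical density at 600 nm. Assay medium contained 2% galactose at pH 6.0; NS1-free yeast of the same strain were the positive control.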
Lassa entry inh – Lassa virus entry inhibition; Lassa virus pseudotype entry inhibition, cell reporter; control for the full effect not named in the record; Potency, µM (top dose mostly 37.9 µM), inactives show at the highest dose activity change, negative = inhibition, actives largely listed as inhibitors; 300,000 compounds, 1.2% hits; AID 540256; active means well fitted inhibition curve with a large enough effect; inconclusive means small, poorly fitted or top-dose-only effect, or effect the other way; inactive means flat fitted curve, though single readings scatter; tested in HEK293 cells; note: % is set by controls: 0 for no effect and ±100 for the full control effect; nearly all actives have a fitted effect of over 50% in size; luciferase read-out
SARS PLpro yeast – inhibitors of SARS-CoV papain-like protease in yeast; 330,000 compounds, 0.19% hits; S. cerevisiae expressing SARS-CoV PLpro, growth rescue; control for the full effect not named in the record; Potency, µM (series often up to 32.9 µM), for the others: at the top dose activity, positive = growth rescue; AID 485353; active means well fitted rising curve with a large enough effect; inconclusive means small, poorly fitted or top-dose-only effect; inactive means no such curve, though single readings can be large or run the other way; note: 0% is about no effect; nearly all actives have a fitted effect of over 55% in size; growth read by luminescence after 48 h
Starred values were filed as active, the others as inactive; ? = inconclusive; . = no result given; & = joins results of further samples; [ ] = dose if it differs, or a comment. Unless noted, calls come from the whole dose curve; as a rule, active = well fitted curve in the direction sought with a large enough effect; inconclusive = small, poorly fitted or top-dose-only effect, or another doubt; inactive = no such curve, though single readings can be large; an effect the other way counts as inactive or inconclusive. Potency is the fitted concentration of half-maximal effect.

SMILES	2A StopGo	Cruzain Triton	MARV entry inh	RE007 growth inh	Cruzain noTriton	NS1 inh	Lassa entry inh	SARS PLpro yeast
O=C(O)C(C(=O)/C=C/c1ccco1)=C1SCCS1	10%	-11%	3%	-1%	8%	11%	3%	-3%
COc1cc(OC)cc(C(=O)NC(=S)Nc2nc(-c3cc4ccccc4o3)cs2)c1	-8%	.	.	-7%	.	-59%	.	0%
COc1ccc(CCNC(=O)CSc2nc(=O)n3cccc(C)c3n2)cc1OC	-2%	.	?	3%	.	.	1%	.
Cc1cccc2c1cnn2C(=O)Nc1cc(F)ccc1F	35%[activator]	.	.	-9%	.	-3%	.	1%
COc1ccc(Cl)cc1N(CC(=O)NC(C)(C)C)S(=O)(=O)c1ccc(C)c([N+](=O)[O-])c1	-11%	-4.6%	?	8%	14%	7%	8%	-1%
CCc1ccccc1NC(=O)c1nc(-c2ccncc2)no1	3%	-1.9%	.	.	1%	.	0%[46.1 µM]	.
COc1ccc(C(CC(=O)c2ccccc2)CC(=O)c2ccccc2)cc1OC	-16%	.	?	-8%	.	-5%	-13%[46.1 µM]	-2%
Cc1ccc(CNC(=O)CC(C)S(=O)(=O)c2ccc3c(c2)NC(=O)C(C)S3)cc1 (centres undefined)	?	.	.	-4%	.	7%	.	3%
CC(C)OC(=O)c1c(NC(=O)Cn2cnc([N+](=O)[O-])n2)sc2c1CCCC2	?	1.8%	-22%	-17%	10%	13%	0%	-1%
O=C(CCS(=O)(=O)c1ccc(Br)s1)NC1CCCCCC1	22%	-2.9%	-12%[46.1 µM]	-10%	1%	-2%	-1%	2%
COc1cc(C(=S)N2CCOCC2)ccc1OC(=O)c1ccccc1[N+](=O)[O-]	-18%	.	.	9%	.	2%	.	-10%
COc1cc(CNc2ccccc2SC)cc(OC)c1OC	?	-5.2%	?	1%	6%	-3%	-16%	-8%
Cc1ccc(C)c(OCc2nc3ccccc3n2C)c1	23%	-5.5%	?	.	12%	.	1%[46.1 µM]	.
O/N=C/c1ccccc1OCc1ccccc1F	25%	-3.1%	10%	?	-3%	-16%	5%	-26%
COc1ccccc1[C@@H]1C(c2cccc(C)c2)=NN(c2ccccc2)[C@H]1C(=O)N1CCOC1=O	-9%	-4.4%&-29%	-38%	19%	16µM*	?	11%	8%
COc1ccc(NC(=O)c2ccc(C)cc2)c[n+]1[O-]	54%[activator]	.	4%	-11%	.	2%	-27%	0%
CN(Cc1cc(=O)[nH]c2ccccc12)C(=O)c1ccccc1	40%[activator]	2.1%	.	8%	3%	-68%	.	?
O=C(O)CSc1nc2ccccc2n1-c1ccccc1	-16%	.	24%[46.1 µM]	-3%	.	-2%	9%	1%
CCSc1nc2c(c(=O)[nH]c(=O)n2C)n1C/C=C(/C)Cl	0%	-2.2%	-1%[46.1 µM]	25%	5%	5%	0%	9%
O=C(NNC(=O)c1ccc(O)cc1O)c1ccc(Cl)cc1	5%	1.1%	?	20%	-4%	9%	13%	1%
COc1ccc(C2CC(C)(c3ccc(OC)cc3OC)Nc3ccccc3N2)c(OC)c1 (centres undefined)	-5%	.	2%[46.1 µM]	-3%	.	-5%	13%	-2%
CCOC(=O)C(C(=O)OCC)C(=O)c1cc(OC)c(OC)c(OC)c1	-4%	0.6%	?	15%	3%	-7%	-1%	-5%
CCOC(=O)C1=C(C)Nc2nnnn2C1c1cccnc1 (centres undefined)	-12%	0.1%	-6%[46.1 µM]	-8%	1%	7%	?	-6%
CC(=O)c1cccc(NC(=O)c2nc3ccccc3n(C)c2=O)c1	26%	-5.0%	?	.	-3%	.	2%[46.1 µM]	.
Cc1cc(N2CCN(c3ccccc3F)CC2)n2cnnc2n1	?	-0.4%	-3%[46.1 µM]	.	-8%	.	?	.
COc1ccccc1OCC(=O)N1CCC(c2nc3ccccc3o2)CC1	-5%	-2.2%	-9%[46.1 µM]	.	2%	.	2%[46.1 µM]	.
COCCNC(=S)N(c1ccccc1)C(C)C	-5%	.	?	15%	.	1%	24%	0%
NC(=O)CC[C@@H]1NC(=O)[C@H](Cc2ccc(O)cc2)NC(=O)c2cc([N+](=O)[O-])cc(F)c2OCC[C@@H](C(N)=O)NC1=O	7%	-4.2%	0%	45%	?	21%	8%	20%
COc1ccc(Cl)cc1S(=O)(=O)n1cnc2ccccc21	2%	-2.4%	4%	8%	-12%	-1%	-10%	0%
CCOC(=O)c1nc(N)c(=O)n(-c2ccc(C)cc2)n1	-5%	-3.2%	12%	13%	4%	1%	2%	21%
Cc1cc(C)cc(NC(=O)COC(=O)c2n[nH]c3ccccc23)c1	31%[activator]	.	?	-2%	.	.	25%	0%
COc1ccc(OC)c(C2Nc3c(Cl)ccc(C(=O)O)c3C3C=CCC32)c1 (centres undefined)	-12%	.	?	-12%	.	9%	-10%	0%
O=C(NCc1cccnc1)C1CCCN(S(=O)(=O)c2ccccc2)C1 (centres undefined)	.	6.4%	-30%	8%	8%	1.6µM*	13%	11%
O=C1S/C(=C\c2ccc(N3CCOCC3)o2)C(=O)N1c1ccccc1	2%	.	?	-7%	.	.	18%	-2%
Cc1cccc(C)c1OCCCn1ccnc1	2%	.	.	3%	.	?	.	0%
O=[N+]([O-])c1ccc(NCc2ccncc2)cc1	-14%	.	-2%[46.1 µM]	-9%	.	1%	16%[46.1 µM]	0%
CCCc1nc2ccccc2c(C(=O)OC(C)C(=O)NCc2ccc3c(c2)OCO3)c1CC (centres undefined)	?	-5.6%	?	23%	-9%	0%	-21%	5%
CCC(=O)Nc1nc(C)c(-c2csc(Nc3cccc(O)c3)n2)s1	-14%	.	.	-11%	.	11%	.	0%
CCOC(=O)c1cc(-c2cccs2)nc2onc(C)c12	8%	-3.4%	-1%	8%	-10%	-8%	-17%	4%
CN1CCN(c2ccc(-c3cccc(NC(=O)COc4ccc(Cl)cc4)c3)nn2)CC1	-53%	.	?	0%	.	.	?	-3%
Cc1cc(C(=O)N2CCOCC2)c(C)o1	-8%	.	17%[46.1 µM]	10%	.	7%	6%[46.1 µM]	1%
CN(CCC#N)C(=O)COC(=O)c1ccc(Cl)c(S(N)(=O)=O)c1	16%	-3.3%	3%	7%	-1%	1%	4%	0%
Cc1ccc(S(=O)(=O)CCSc2ccc(C(F)(F)F)cn2)cc1	-15%	.	.	-6%	.	3%	.	0%
Cc1nn(CCC(=O)N2CCN(c3ccccc3F)CC2)c(C)c1S(=O)(=O)N1CCCC1	-4%	-0.6%	.	.	?	.	4%[46.1 µM]	.
O=C(O)CCCC(=O)Nc1ccc(Cl)c(Cl)c1	-9%	6.3%	-4%[46.1 µM]	0%	9%	-5%	1%	5%
COCCN(C(=O)C1CCCC1)c1c(N)n(Cc2ccccc2)c(=O)[nH]c1=O	7%	.	?	-3%	.	.	11%[46.1 µM]	1%
COc1ccc(C(=O)N2CCc3cc(OC)c(OC)cc3C2c2ccc(OC)c(OC)c2)cc1 (centres undefined)	-10%	.	?	52%	.	-6%	5µM*	-5%
O=C(NCC1COc2ccccc2O1)c1ccc(Cl)cc1 (centres undefined)	0%	0.7%	-7%	?	14%	-172%	-16%	-8%
COc1ccc(Oc2c(-c3ccc(O)cc3O)n[nH]c2C)cc1	-22%	-15%	21%[46.1 µM]	8%	5%	-13%	?	7%
Cc1cccc(OC(=O)c2cccnc2)c1	-3%	.	8%	0%	.	-15%	?	-6%
CCN(C1CCCCC1)S(=O)(=O)c1ccc(-n2cnnn2)c(C)c1	24%	.	11%[46.1 µM]	-4%	.	-8%	-14%	0%
CN[C@H](CC(=O)O)C(=O)O	-14%&-5%&-8%	2.7%&-1.7%	?	-15%[18.4 µM]	-7%&8%	0%	15%	.
CCn1cc(C(=O)N[C@H](C)c2ccccc2)c(=O)c2cc(F)c(N3CCN(C)CC3)cc21	-2%	-0.6%	-21%	-11%	-5%	2%	-7%	-5%
Cc1nccc(-c2cccc(N/N=C(\C#N)C(=O)c3ccccc3)c2)n1	?	.	.	4%	.	-1%	.	-1%
CSc1nncc(/C(C)=N\Nc2ccccc2C)n1	18%	6.6%	0%	-4%	?	-87%	28%	-2%
CCOC(=O)c1cccc(NS(=O)(=O)c2ccc(NC(C)=O)cc2)c1	-23%	-3.1%	-3%	17%[3.69 µM]	-8%	2%	-20%	1%
C/C(=N/NC(=O)CNC(=O)COc1cccc(C)c1)c1ccc(Cl)cc1	12%	.	8%[46.1 µM]	1%	.	-5%	4%[46.1 µM]	0%
O=C(CSC1=NCCS1)Nc1ccc(S(=O)(=O)NC2CCCCC2)cc1	?	-4.9%	16%	8%	8%	7%	9%	-6%
Cc1ccc(C(=O)N2CCN(S(=O)(=O)N3CCCCC3)CC2)cc1	-23%	.	?	11%	.	-6%	2%	?
COc1ccc(NC(=O)/C(C#N)=C/c2cc(C)n(-c3ccc(N4CCOCC4)c([N+](=O)[O-])c3)c2C)cc1	4µM*	-6.8%	-15%	-16%	-30%	0%	?	1%

(more compounds)
SMILES	2A StopGo	Cruzain Triton	MARV entry inh	RE007 growth inh	Cruzain noTriton	NS1 inh	Lassa entry inh	SARS PLpro yeast
Cc1cc(=O)oc2cc(NC(=O)CCOc3ccccc3)ccc12	-3%	.	-22%[46.1 µM]	7%	.	-4%	-14%	2%
O=C(NCc1ccco1)c1ccc(S(=O)(=O)N2CCCc3ccccc32)cc1	-28%	-5.2%	?	-18%	-13%	?	16µM*	-5%
O=C(O)CCn1cc(C(=O)O)c(-c2ccccc2)n1	-15%	.	.	13%	.	-2%	.	5%
O=[N+]([O-])c1ccc(NC(=S)NCc2ccncc2)cc1	-6%	.	?	-15%	.	.	1%[46.1 µM]	-2%
COc1ccc(C2=NC(C)(C)Cc3cc(OC)c(OC)cc32)cc1	-10%	.	.	-17%	.	-4%	.	-2%
Cc1cc(C)n(C(=O)COc2ccccc2[N+](=O)[O-])n1	-10%	.	2%	2%	.	-1%	9%	1%

This is a random part of the collection, and some 4.7% of all compounds hit somewhere here.
